From PubChem
PINK1 modulator – modulators of PINK1 expression; PINK1 immunofluorescence, high-content cytometry, 24 h; Potency, µM (titrated, usually from 76.6 µM), inactives show at the highest dose activation (PINK1 increase), actives largely listed as activators; 0.2% of 410,000 active; active = well fitted activation curve with a large enough effect; inconclusive = small, poorly fitted or top-dose-only effect; inactive = flat fitted curve, though single readings scatter; cell line not stated here;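 also: potency is read from the fitted curve at half-maximal effect; % of control where 0% means no effect; nearly all actives have a fitted effect of over 65% in size; a mitochondrial uncoupler was the plate control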
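PINK1 protein level read as immunofluorescence by microplate cytometer in a fixed, stained stable cell line after 24 h exposure to five compound concentrations, with CCCP as control.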
CtBP-E1A blk – CtBP/E1A binding inhibition; 0.49% of 340,000 active; activity change, % (concentration not given with the values); AlphaScreen GST-E1A/His-CtBP binding, 1536-well; hits give low values; control for the full effect not named in the record; AID 651724; in the data active means activity change below about -65%; inconclusive means about -30% to -65%; inactive means above about -30%; also: % is scaled to controls: 0 for no effect and ±100 for the full control effect
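Steps: dispense buffer (Tris pH 8.0, NaCl 300 mM, TCEP 1 mM, BSA, Tween 20); add 5X protein mix (GST-E1A, His-CtBP, 125 nM each); pin 23 nL compound; 2 h at 37 °C, dark; add 5X beads (50 ug/mL); 1 h; read.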
Sfp PPTase inh – blocks B. subtilis Sfp PPTase activity | Biochemical Sfp PPTase activity, qHTS | Potency, µM, for inactives: max response, negative = inhibition, most hits filed as inhibitors | 3.5% of 310,000 active | AID 1490; active = well fitted inhibition curve with a large enough effect; inconclusive = small, poorly fitted or top-dose-only effect, or another doubt; inactive = no such curve, though single readings can be large or run the other way;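 also: the enzyme is Sfp with the accession as filed and its product quenches rhodamine fluorescence; potency is read from the fitted curve at half-maximal effect; 0% = enzyme reaction without inhibitor and -100% = no enzyme wells; top concentration of the series not given in the record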
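After 15 min at room temperature with compound, 15 nM Sfp received 5 uM rhodamine-CoA plus 12.5 uM BHQ-2-ybbR (50 mM Hepes pH 7.6, 10 mM MgCl2). Rate came from the fluorescence difference over 30 min, ex 525/em 598 nm.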
Six1-Eya2 blk – blocks human Six1 binding to Eya2; 0.56% of 360,000 active; activity change, % (no concentration beside the values); AID 651725; AlphaScreen GST-Six1/His-Eya2 binding, biochemical; hits give low values; control for the full effect not named in the record; in the data active = activity change below about -65%; inconclusive = about -30% to -65%; inactive = above about -30%; also: % is scaled to controls: 0 for no effect and ±100 for the full control effect; compound concentration not given in the record
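Compounds are tested against tagged Six1 and Eya2 proteins bridged by glutathione donor and nickel acceptor beads; after a one-hour incubation at 37 °C without light, AlphaScreen emission is recorded.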
D2 agonist – activates the human D2 dopamine receptor. P14416. activation, % (concentration not given with the values). 0.084% of 360,000 active. DiscoveRx PathHunter D2 beta-arrestin, luminescence, 90 min; 100% = 57 uM dopamine signal; in the data active = activation above about 40%; inconclusive = about 15% to 40%; inactive = below about 15%; also: compound concentration not given in the record; the text of the record calls up to 30% inactive
Target sequence (P14416 whole entry, looked up): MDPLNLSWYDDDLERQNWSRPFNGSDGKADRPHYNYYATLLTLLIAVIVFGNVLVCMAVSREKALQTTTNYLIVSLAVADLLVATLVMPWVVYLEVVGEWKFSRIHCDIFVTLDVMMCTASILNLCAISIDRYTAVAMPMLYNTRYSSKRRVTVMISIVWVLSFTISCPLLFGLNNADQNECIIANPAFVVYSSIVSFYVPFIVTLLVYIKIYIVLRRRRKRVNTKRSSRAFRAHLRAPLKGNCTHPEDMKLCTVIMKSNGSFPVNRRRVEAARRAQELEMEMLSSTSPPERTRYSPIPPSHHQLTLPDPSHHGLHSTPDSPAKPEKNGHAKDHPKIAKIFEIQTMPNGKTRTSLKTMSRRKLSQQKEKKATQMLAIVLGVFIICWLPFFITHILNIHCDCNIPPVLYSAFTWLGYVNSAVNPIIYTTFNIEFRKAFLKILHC
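Agonist mode: compounds alone added to overnight-plated D2 PathHunter cells for 90 min at 37 C, with 57 uM final dopamine (EC100) defining full response. Beta-arrestin recruitment detected by chemiluminescent reagent, read after 1 h at ambient temperature.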
TRPV1 PAM – human TRPV1 potentiation. TRPV1-expressing cells, Fluo-8 calcium influx, capsaicin EC20 potentiation; host cell line not named in the record; control for the full effect not named in the record. potentiation, % at 8.33 µM. 0.02% of 320,000 active; active means potentiation above 80%; inconclusive means 30% to 80%; inactive means below 30%; also: 0% is about no effect
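TRPV1-expressing cells were cultured overnight at 35.5C and loaded with Fluo-8 calcium dye for 40 to 90 min at room temperature. After a 10 s baseline, compound was added and calcium influx was read kinetically for 3 min (ex 480/em 520 nm).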
D2 PAM – positive allosteric modulators of human D2 dopamine receptor; P14416; DiscoveRx D2 beta-arrestin cells, luminescence, 90 min; 100% = 57 uM dopamine signal; potentiation, % (concentration not given with the values); 0.23% of 360,000 active; AID 624464; active = potentiation of 50% or more; inconclusive = 30% to 50%; inactive = 30% or less;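 also: compound concentration not given in the record; tested on top of an EC20 dose of dopamine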
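D2 cells co-treated with compound plus 50 nM dopamine (EC20) for 90 min at 37 deg C to detect potentiation. Beta-arrestin recruitment was read as enzyme-fragment luminescence after 1 h at ambient temperature. Full response was set by 57 uM dopamine.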
Starred values were filed as active, the others as inactive; ? = inconclusive; nt = no result given; [ ] = dose if it differs, or a comment.

item	SMILES	PINK1 modulator	CtBP-E1A blk	Sfp PPTase inh	Six1-Eya2 blk
1	Cc1ccc(NS(=O)(=O)c2cc3c4c(cccc4c2)C(=O)NC3=O)cc1C	1.8%	-15	-13%	-15
2	O=C(Cn1c(=O)oc2ccccc21)N1CCOCC1	1.0%	nt	20%	14
3	O=C(C1CCCN(S(=O)(=O)c2ccc(Cl)cc2)C1)N(Cc1cccs1)C1CC1 (stereo not drawn)	0.1%	-1	2%	-3
4	CC(C)(C)NC(=O)CSC(=Nc1ccccc1F)NC#N	1.6%[38.3 µM]	-10	-26%	-1
5	Cc1ccc(NC(=O)[C@H](CC(C)C)NC(=O)[C@@H]2Cc3ccccc3CN2)cc1	-1.2%	3	17%	2
6	O=C(CNC(=O)c1ccc(Cl)cc1Cl)OCCOc1ccccc1F	-0.7%	-1	nt	6
7	CC1CCCN(CC(O)COCc2ccccc2)C1 (stereo not drawn)	1.3%	10	-4%	4
8	COc1ccc(-c2coc3c(C(=O)NCC4CC4)cccc23)c(C)c1	5.0%	2	nt	-2
9	CC(C)C(=O)Nc1nc2cc3c(cc2s1)OCO3	1.0%	-6	12%	-2
10	CCOC(=O)C1(CCCc2ccccc2)CCN(C(=O)c2cnn(CC)c2)CC1	0.9%	0	16%	4
11	O=C(NCC(=O)N1CCN(c2ccccc2F)CC1)c1ccco1	0.2%	-2	21%	7
12	O=C(c1cc(COc2c(F)cccc2F)on1)N(Cc1ccccc1)CC1CC1	2.6%	46	8%	30

item	D2 agonist	TRPV1 PAM	D2 PAM
1	-4.6	-9	-5
2	-1.3	0	-9
3	-2.9	-7	-10
4	0.1	10	-6
5	-0.4	2	-10
6	0.1	nt	-16
7	-3.2	4	-3
8	6.9	nt	-19
9	-3.3	-21	-7
10	-1.0	0	-5
11	-0.5	13	0
12	3.7	1	-1

The list continues:
item	SMILES	PINK1 modulator	CtBP-E1A blk	Sfp PPTase inh	Six1-Eya2 blk
13	CN(C(=O)c1ccc(Cl)cc1)C1=CCCCC1CCC#N (stereo not drawn)	0.8%	9	20%	-7
14	COC(=O)Cc1c(C)c2ccc(OCC(=O)N3CCCC3)c(C)c2oc1=O	-0.7%	-1	18%	-5
15	COc1ccc(OC)c(NC(=S)NCCC(c2ccccc2)c2ccccc2)c1	-0.8%	?	nt	?
16	NC(=O)C1CCN(C(=S)NCCc2ccccc2)CC1	-0.1%	-3	2%	0
17	COc1ccccc1CNc1nc(NCCOc2ccccc2)c2sccc2n1	?	-6	nt	-14
18	COCCCNC(=O)C1CCC(=O)N1Cc1ccccc1Cl (stereo not drawn)	4.9%	-5	17%	-1
19	OC(COc1ccccc1F)CN1CCC(Cc2ccccc2)CC1 (stereo not drawn)	3.2%	-12	-2%	1
20	O=C(CSc1nnc(NC(=O)c2ccccc2[N+](=O)[O-])s1)NCc1ccco1	-0.3%	-6	18%	5
21	CCCN(CCC)C(=O)CC(c1ccccc1)c1cc(Br)ccc1O (stereo not drawn)	1.5%[38.3 µM]	0	7%	-11
22	CC(=O)c1ccc(NC(=O)CCCC(=O)c2ccccc2)cc1	-0.4%	5	9%	0
23	FC(F)(F)c1cccc(CNC(=S)Nc2ccccc2)c1	7.6%	-19	-8%	9
24	COc1ccc(N(CCOc2ccccc2)S(=O)(=O)c2ccccc2)cc1	8.9%	nt	nt	20

item	D2 agonist	TRPV1 PAM	D2 PAM
13	-1.4	9	11
14	-4.8	1	-16
15	-6.6	nt	-34
16	0.3	-17	0
17	4.9	nt	-14
18	0.3	0	-17
19	-5.6	2	-2
20	-8.2	-3	-22
21	-2.6	-10	-14
22	-0.7	-10	5
23	-1.2	-9	-2
24	-4.0	-3	-5

Continued:
item	SMILES	PINK1 modulator	CtBP-E1A blk	Sfp PPTase inh	Six1-Eya2 blk
25	CCn1cc(S(=O)(=O)Nc2cc(C)ccc2F)cn1	-0.6%	12	17%	6
26	COc1ccc(-c2csc(N3CCC(c4ccccc4)CC3)n2)cc1	10%	4	15%	-2
27	CC(=O)c1cccc(NC(=O)C2(C)Cc3c(-c4ccccc4)ccnc3O2)c1 (stereo not drawn)	5.9%	2	nt	-8
28	CC1(C)Cc2c(C#N)c(N)n(-c3ccccc3)c(=O)c2CO1	-0.7%	7	13%	0
29	COC(=O)c1ccc2nc(-c3ccc(F)cc3)c(Cc3ccccc3OC)n2c1	?	2	nt	2
30	O=C(CSc1nnc(Cc2ccccc2)n1-c1cccc(Cl)c1)NNC(=O)Cc1ccccc1	0.0%	-2	6%	2
31	CN(C)c1nnnn1-c1ccccc1Oc1ncc(C(F)(F)F)cc1Cl	-1.5%	1	6%	3
32	CN(C(=O)c1ccccc1)c1nccnc1C#N	-0.6%	0	-5%	0
33	CCOC(=O)Cc1c(C)c2c(C)[nH]nc2oc1=O	-0.1%	-2	-6%	-1
34	CCOC(=O)C1C(=O)C(=O)N(C2CCCCC2)C1C(=O)OCC (stereo not drawn)	1.0%	5	nt	8
35	CC(=O)c1ccc(S(=O)(=O)N2CCCC(N(C)CCc3ccccc3)C2)cc1 (stereo not drawn)	0.0%	12	12%	-7
36	CCOc1cccc(C(=O)NC(=S)Nc2ccccc2)c1	-0.4%	3	-27%	-12

item	D2 agonist	TRPV1 PAM	D2 PAM
25	1.3	-9	3
26	-0.4	11	0
27	3.8	nt	1
28	1.2	-1	-4
29	nt	nt	nt
30	0.7	3	0
31	-1.7	1	1
32	4.6	6	-13
33	-2.8	0	-1
34	-1.8	nt	2
35	0.3	-1	-20
36	-1.6	-2	-3

Continued:
item	SMILES	PINK1 modulator	CtBP-E1A blk	Sfp PPTase inh	Six1-Eya2 blk
37	CCC(C)(C)NC(=O)CN(C(=O)c1snc(C(N)=O)c1N)c1ccc2c(c1)OCCO2	-0.1%[38.3 µM]	7	15%	0
38	CCCn1c2c(c(=N)c3c1CCC3)CCC2	0.9%	5	0%	5
39	CCCCCn1c(Br)nc2c1c(=O)n(CC(N)=O)c(=O)n2C	-2.8%	4	-3%	3
40	CCCCNC(=O)/C(C#N)=C/c1ccc(F)cc1F	-0.1%	-7	3%	5
41	CCc1ccc(-n2c(C)cc(/C=N/NC(=O)c3ccncc3)c2C)cc1	1.1%	-12	-23%	-14
42	COc1ccc(-c2c(C(F)(F)F)nn(C)c2NC(C)=O)cc1	0.4%	-4	-2%	11
43	CCc1cccc(C)c1NC(=O)Cc1ccsc1	-2.4%	3	9%	5
44	Cc1cccc(NS(=O)(=O)c2cccc([N+](=O)[O-])c2)n1	0.8%	nt	13%	-1
45	Cc1ccc2c(N)[nH]nc2n1	1.4%	1	-7%	3
46	Cc1ccc(Sc2ccc(N)cc2C#N)cc1	5.5%	-3	nt	11
47	CC1=CC(C)(C)n2c(O)c(N=NC(N)=S)c3c(C)ccc1c32	0.8%	-4	17%	2
48	C=CCNc1nc(Cl)nc(Nc2ccc(OC)cc2OC)n1	9.2%	3	17%	5

item	D2 agonist	TRPV1 PAM	D2 PAM
37	0.6	3	0
38	0.6	4	-5
39	-2.4	-10	7
40	-2.2	1	-3
41	-3.8	-17	1
42	-3.6	?	-7
43	-5.2	20	-2
44	-2.1	-1	-20
45	-2.8	16	-2
46	-0.6	nt	-1
47	1.8	-6	4
48	-1.4	9	-4

Exported in transposed form: 3 of the compounds above.
(43) CCc1cccc(C)c1NC(=O)Cc1ccsc1
(44) Cc1cccc(NS(=O)(=O)c2cccc([N+](=O)[O-])c2)n1
(45) Cc1ccc2c(N)[nH]nc2n1

| compound no. | 43 | 44 | 45 |
| --- | --- | --- | --- |
| PINK1 modulator | -2.4% | 0.8% | 1.4% |
| CtBP-E1A blk | 3 | nt | 1 |
| Sfp PPTase inh | 9% | 13% | -7% |
| Six1-Eya2 blk | 5 | -1 | 3 |
| D2 agonist | -5.2 | -2.1 | -2.8 |
| TRPV1 PAM | 20 | -1 | 16 |
| D2 PAM | -2 | -20 | -2 |

(list continues)
item	SMILES	PINK1 modulator	CtBP-E1A blk	Sfp PPTase inh	Six1-Eya2 blk
49	COc1ccccc1OCc1cc(-c2ccccc2)no1	0.2%	25	6%	23
50	O=C(NCc1ccc(F)cc1)c1cc(C2CCCCN2C(=O)CCc2ccccc2)on1 (stereo not drawn)	-0.2%	6	nt	-1
51	CCc1ccc(OCCNC(=O)c2cc(SC)ccc2Cl)cc1	1.1%	29	3%	24
52	O=C(NNC(=O)C12CC3CC(CC(C3)C1)C2)c1cccc(O)c1	6.3%	6	13%	2
53	NS(=O)(=O)c1ccc(Nc2nc(-c3ccc(O)cc3)cs2)cc1	3.3%[38.3 µM]	?	-24%	?
54	CCOc1ccccc1NC(=O)C1CCCN(S(=O)(=O)c2ccc(OC)c(C)c2)C1 (stereo not drawn)	0.6%	0	11%	-7
55	CCOC(=O)C1C(=O)NC(SCC(=O)Nc2nccs2)=C(C#N)C1c1ccccc1OCC (stereo not drawn)	2.4%[38.3 µM]	-17	14µM*	-9
56	CCOc1ccc(C)cc1S(=O)(=O)N1CCCCC1	-1.9%[38.3 µM]	1	10%	3
57	CN1CCN(CCCOc2ccc(-c3ccccc3)cc2)CC1	-1.1%	-3	-9%	4
58	C#CCn1c(=NC(=O)CN2C(=O)CCC2=O)sc2cccc(OC)c21	0.4%	nt	25%	0
59	Cc1cc(C)c2c(-n3cccc3)c(C(=O)NNS(=O)(=O)c3ccc(Br)cc3)sc2n1	-2.4%	0	-9%	-8

item	D2 agonist	TRPV1 PAM	D2 PAM
49	-1.5	-12	2
50	-3.2	nt	-6
51	0.2	1	-23
52	-5.5	-7	2
53	4.7	1	6
54	-2.5	2	-3
55	-1.4	3	-2
56	-0.5	-9	-4
57	-4.4	2	6
58	-0.3	2	9
59	0.1	nt	18
